# Screens deposited in PubChem BioAssay by Broad Institute.
# Hedgehog = Drosophila hedgehog isoform A inhibitors, primary screen, biochemical, plate reader, single concentration (AID 588832); Biochemical plate reader assay, Hedgehog inhibition; active compounds read high; inhibition, % at 30.3 µM; 8,000 tested, under 10 active; in the data active = inhibition from about 57%;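 also: 0% = neutral control wells and 100% = positive control wells; cholesterol-driven self-cleavage of fly hedgehog protein by fluorescence polarization; read one hour after cholesterol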
# * hit, by the source's call. Not all compounds are listed, so the mix of outcomes need not match the whole.
mol | Hedgehog
Cn1c(=O)oc2cc(S(=O)(=O)N3CCC(C(=O)NCc4ccccc4)CC3)ccc21 | 6.8
COc1cc(O)c2c(c1)OC(c1ccc(O)cc1)CC2=O (stereo unspecified) | 8.6
CC1CC(C)CN(S(=O)(=O)c2cc3c(cc2Cl)NC(=O)CO3)C1 (stereo unspecified) | 25.0
O=C(Cn1c(S(=O)(=O)Cc2ccccc2)nc2ccccc21)N1CCCCC1 | 7.0
Cc1noc(C(=O)N2CCN(c3ccccc3)CC2)c1Cl | 3.5
Cc1cc(C)n2nc(CNS(=O)(=O)c3ccc(CC(C)C)cc3)nc2n1 | 1.9
COc1ccccc1CNC(=O)[C@H](C)NC(=O)C1CCN(C(=O)[C@@H](N)CC(C)C)CC1 | 3.6
COc1cc2c(cc1OC)C(=O)N(C)CC2 | 7.0
O=C(CSc1nnc(Cc2cc(=O)[nH]c(=O)[nH]2)n1-c1ccc(Cl)cc1)NC1CCCC1 | -15.0
COc1ccc(NC(=O)NCCN2CCN(c3cccc(Cl)c3)CC2)cc1 | 5.3
C=CCOC(=O)c1[nH]c2c(c1C)C(=O)CC(c1cc(OC)c(OC)c(OC)c1)C2 (stereo unspecified) | 10.0
COc1cc(O)c(C(C)=O)c2c1C=CC(C)(C)O2 | 14.4
COc1ccccc1CNS(=O)(=O)c1ccc2c(c1)oc(=O)n2C | 1.7
CC(C)CCn1c(CN2CCN(c3cccc(Cl)c3)CC2)nc2c1c(=O)n(C)c(=O)n2C | 14.1
Cc1ccc(NS(=O)(=O)c2ccc3c(c2)NC(=O)C(C)C(=O)N3)c(Br)c1 (stereo unspecified) | 6.8
O=C(CC(O)CCc1ccccc1)c1ccc(O)cc1 (stereo unspecified) | 8.6
Cc1ccc(NC(=O)CN(C)S(=O)(=O)c2cccc3cccnc23)cc1C | 5.6
Cc1ccccc1-c1nc(CS(=O)CC(=O)NCc2ccccc2)c(C)o1 (stereo unspecified) | 5.4
COC(=O)c1cc(=O)n(-c2ccc(F)cc2)c(=Nc2ccc(F)cc2)s1 | 1.8
Cc1c(C(=O)NCc2ccc3c(c2)OCO3)sc2nc(-c3ccc(F)cc3)cn12 | 5.1
COc1cc(/C=C/C(=O)NC(=O)c2ccccc2O)ccc1OC(C)=O | 3.6
O=C(O)[C@@H]1CCCN1C(=O)COc1ccc2c3c(c(=O)oc2c1)CCC3 | 3.3
O=C(CCc1nnc2n(Cc3ccc(F)cc3)c(=O)c3ccccc3n12)NCCN1CCOCC1 | 16.7
COc1ccc(/C=C2\Oc3cc(OCC(=O)N4CCC(C(=O)O)CC4)ccc3C2=O)c(OC)c1OC | 6.9
Cc1cc(=O)oc2c3c(cc(OCC(=O)NCc4ccccc4)c12)OC(C)(C)CC3 | 4.9
O=C(CS(=O)(=O)c1c[nH]c2ccccc12)N1CCCc2ccccc21 | 6.4
Cc1nnc(NC(=O)CC23CC4CC(CC(C4)C2)C3)s1 | 5.1
COCCN1C(=O)c2cc(C(=O)Nc3cccc(F)c3)ccc2C1Nc1cccc(F)c1 (stereo unspecified) | 8.7
CCOc1ccc(/C=N/NC(=O)c2ccc(F)cc2)cc1CN1CC2CC(C1)c1cccc(=O)n1C2 (stereo unspecified) | 10.7
Cc1ccc2oc(=O)c3cnn(CC(=O)N4CCCc5ccccc54)c3c2c1 | 9.5
O=C(C(Cc1ccccc1)n1cccc1)N1CCN(c2ncccn2)CC1 (stereo unspecified) | 5.4
CCS(=O)(=O)NCC(c1cccnc1)N1CCN(c2ccccc2)CC1 (stereo unspecified) | 0.9
CCc1ccccc1NC1c2ccccc2C(=O)N1c1cc(C)ccn1 (stereo unspecified) | 11.5
CCOC(=O)C1CCCN(S(=O)(=O)c2cn(C)c(=O)n(C)c2=O)C1 (stereo unspecified) | 5.1
Cc1ccc2c(c1)N(C(=O)CCC(=O)N1CCN(c3ccccn3)CC1)CCO2 | 12.3
COCCOC(=O)c1[nH]c2c(c1C)C(=O)C(C(=O)OC)C(C)C2 (stereo unspecified) | 20.0
Cn1c(=O)c2[nH]c(=O)[nH]c2n(C)c1=O | 5.4
COc1ccc(NC(=O)C2CCCN2S(=O)(=O)c2ccc3c(c2)CCC(=O)N3)cc1Cl (stereo unspecified) | 29.2
CCOC(=O)CN1Cc2cccc(C(=O)O)c2C1=O | 2.7
COc1c(C)c2c(c(O)c1C/C=C(\C)CCC(=O)O)C(=O)OC2 | 5.1
CCOC(=O)N1CCN(C(=O)COc2ccc(S(=O)(=O)NC(C)C)cc2)CC1 | 20.8
CC(C)(C)C(=O)Nc1sc2c(c1C#N)CCN(Cc1ccccc1)C2 | 3.3
Cc1nn(Cc2c(Cl)cccc2Cl)c(C)c1NC(=O)c1cc(C(C)C)on1 | 0.9
O=C(NCCc1ccccc1)C1CCN(C(=O)c2sccc2-n2cccc2)CC1 | 5.8
COc1ccccc1CCNS(=O)(=O)c1c(C)n(C)c(=O)n(C)c1=O | 5.4
Cc1ccc(NC(=O)C2=CC(c3cccs3)=NS(=O)(=O)N2C)cc1 | 1.8
CCOC(=O)C1=C(N)N2C(=O)C(C)SC2=C(C(=O)OC)C1c1cccc(OC)c1 (stereo unspecified) | 6.5
COc1ccc([C@@]2(O)c3c(ccc(CC=C(C)C)c3O)NC(=O)[C@@H]2OC)cc1 | 1.7
COc1cc(C2OCC3C(c4cc(OC)c(OC)c(OC)c4)OCC23)cc(OC)c1OC (stereo unspecified) | 6.6
COc1ccccc1N1CCN(C(=O)c2cc3cc(Br)ccc3oc2=O)CC1 | 8.0
O=C(c1cccc(Cl)c1)N(Cc1ccco1)C1CCS(=O)(=O)C1 (stereo unspecified) | 3.5
CCOCCn1c(CN(Cc2ccccc2)Cc2ccccc2)nc2c1c(=O)n(C)c(=O)n2C | 4.6
CN1CCN(c2nc3c(c(=O)[nH]c(=O)n3C)n2CCSc2nc3ccccc3s2)CC1 | 7.3
CCC(NS(=O)(=O)c1ccc2c(c1)NC(=O)C(C)C(=O)N2)c1cccs1 (stereo unspecified) | 0.0
COc1cccc(-c2nc(CS(=O)(=O)CC(=O)Nc3cc(C)ccc3C)c(C)o2)c1 | 6.8
O=C(c1cc(-c2ccccc2)n[nH]1)N1CCN(S(=O)(=O)c2ccccc2)CC1 | 11.1
COC(=O)c1ccc(CSc2nc(C)nc3c2c(=O)n(C)c(=O)n3C)o1 | 9.7
COc1ccc(-c2[nH]c(-c3ccc(F)cc3)nc2SCC(=O)NCc2ccco2)cc1OC | 10.8
O=C(Cn1cc2c(n1)CCCCC2)N1CCCCC1 | 5.0
COc1ccc(CCNC(=O)c2cnc3ccccn3c2=O)cc1 | 5.0

# 7 records drawn at random from the list so far:
mol | Hedgehog
O=C(O)[C@@H]1CCCN1C(=O)COc1ccc2c3c(c(=O)oc2c1)CCC3 | 3.3
COc1cc(O)c(C(C)=O)c2c1C=CC(C)(C)O2 | 14.4
COc1cc(C2OCC3C(c4cc(OC)c(OC)c(OC)c4)OCC23)cc(OC)c1OC (stereo unspecified) | 6.6
COc1ccc(/C=C2\Oc3cc(OCC(=O)N4CCC(C(=O)O)CC4)ccc3C2=O)c(OC)c1OC | 6.9
COc1ccc(-c2[nH]c(-c3ccc(F)cc3)nc2SCC(=O)NCc2ccco2)cc1OC | 10.8
COCCN1C(=O)c2cc(C(=O)Nc3cccc(F)c3)ccc2C1Nc1cccc(F)c1 (stereo unspecified) | 8.7
CCOc1ccc(/C=N/NC(=O)c2ccc(F)cc2)cc1CN1CC2CC(C1)c1cccc(=O)n1C2 (stereo unspecified) | 10.7

# Additional records
mol | Hedgehog
Cc1c(C)c2c(OCC(=O)Nc3ccc(CCO)cc3)cc3c(c2oc1=O)CCC(C)(C)O3 | 7.0
CC(=O)NC(CCS(C)(=O)=O)C(=O)Nc1c(C)cccc1C (stereo unspecified) | 7.2
Cc1cc2c(cc1S(=O)(=O)N(C)C1CCCCC1)OCC(=O)N2 | 5.8
Fc1ccc(C2CC(c3ccccc3)Nc3ncnn32)cc1 (stereo unspecified) | 11.1
OCC1OCOC2C(CO)OCOC12 (stereo unspecified) | 12.6
Cc1cccc(-n2c(Cc3cc(=O)[nH]c(=O)[nH]3)nnc2SCC(=O)NCC2CCCO2)c1 (stereo unspecified) | 11.1
Cn1cccc1Cc1nnc(SCC(=O)Nc2ccccc2)n1-c1ccc(F)cc1 | 12.5
CCN(CCNC(=O)CCCn1nc(C)n2c(cc3sccc32)c1=O)c1ccccc1 | 7.0
CCCCc1cc(=O)oc2c3c(cc(OCC(=O)N4CCC[C@H]4C(=O)O)c12)OC(C)(C)CC3 | 4.9
Nc1c(C(=O)CCC(=O)O)oc2ccc(Cl)cc12 | 3.4
O=C(COc1ccc2c(-c3ccccc3)cc(=O)oc2c1)NCCCn1ccnc1 | -3.3
C/C(=C\CCC1(C)C2CC3C(C2)C31C)C(=O)O (stereo unspecified) | 1.8
Cc1ccc2c(c1)N(CC(=O)NCCC1=CCCCC1)C(=O)c1cccnc1O2 | -2.2
CCc1cccc(CC)c1NC(=S)NCc1ccc2[nH]c(C)cc2c1 | 5.1
COc1ccc(C2=NS(=O)(=O)N(C)C(C(=O)Nc3ccc(OC)c(OC)c3)=C2)cc1 | 12.8

# Among those listed so far, these contain bromine.
mol | Hedgehog
Cc1ccc(NS(=O)(=O)c2ccc3c(c2)NC(=O)C(C)C(=O)N3)c(Br)c1 (stereo unspecified) | 6.8
COc1ccccc1N1CCN(C(=O)c2cc3cc(Br)ccc3oc2=O)CC1 | 8.0

# The results go on.
Compound	Hedgehog
O=c1[nH]c(=O)n([C@H]2C[C@H](O)[C@@H](CO)O2)cc1Br	1.8
Cc1nnc(SCCn2c(N(C)Cc3ccccc3)nc3c2c(=O)[nH]c(=O)n3C)s1	-0.2
Cc1c(CC(=O)N2CCC(C(=O)O)CC2)c(=O)oc2cc3c(cc12)CCC1(CCCCC1)O3	7.0
CCC1CCCCN1Cc1nc2c(c(=O)n(C)c(=O)n2C)n1CC(C)C (stereo unspecified)	0.0
CCN(CC)CCNC(=O)c1sc2nc(-c3ccccc3)cn2c1C	1.8
Cn1c(=O)cc(OCC(=O)NCCCN2CCN(Cc3ccccc3)CC2)c2ccccc21	20.8
COc1ccc(-c2nc(CS(=O)CC(=O)NCc3cccnc3)c(C)o2)cc1OC (stereo unspecified)	8.2
COc1ccc(C)c2sc(=NC(=O)C(C)C)n(C)c12	14.1
O=c1cc(-c2ccccc2)oc2cc(O)cc(O)c12	0.0
Cc1noc(C)c1S(=O)(=O)N1CCN(c2ccccc2)CC1	5.5
COc1ccccc1N1CCN(S(=O)(=O)c2cnc[nH]2)CC1	9.5
CCOC(=O)c1[nH]c2c(c1C)C(=O)CC(c1ccc(N(C)C)cc1)C2 (stereo unspecified)	25.0
CC1CCN(CCCNC(=O)c2cc3c(=O)n(C)c4ccccc4c3n2C)CC1	4.5
COc1ccc(C)c2sc(NC(=O)C3=COCCO3)nc12	2.7
Cc1ccc(-c2nc3cccnc3s2)cc1NS(=O)(=O)c1ccc2c(c1)OCCO2	3.5
Cn1c(C(=O)NCc2cccs2)cc2c(=O)n(C)c3ccccc3c21	-4.5
CCOC(=O)c1ccc(N=c2sc(C(=O)OC)cc(=O)n2Cc2ccco2)cc1	3.6
CCOC(=O)N1CCC(N2Cc3cccc(C(=O)N4CCN(C5CCCCC5)CC4)c3C2=O)CC1	5.8
CCCN1CCN(C(=O)Cn2nc(CC)n3c(cc4sccc43)c2=O)CC1	6.5
COc1cccc(C2=NOC(C(=O)N3CCN(C(=O)c4ccco4)CC3)C2)c1 (stereo unspecified)	6.3
Cc1ccc(C)c(Cn2c(CN(C)Cc3ccccc3)nc3c2c(=O)n(C)c(=O)n3C)c1	0.0
O=C(Cc1cccs1)NCCSc1c(-c2ccc(Cl)cc2)[nH]c2ccccc12	2.6
c1ccc(-c2noc(CN3CCN(c4ccccc4)CC3)n2)cc1	23.4
Cc1ccc(-c2nc(CS(=O)CC(=O)NCCN3CCOCC3)c(C)o2)cc1 (stereo unspecified)	-1.8
CC(=O)N1c2ccc(S(=O)(=O)N3CCCC3C(=O)NCc3ccccc3Cl)cc2CC1C (stereo unspecified)	0.0
CCc1ccccc1NC(=O)c1cc(-c2cccc(O)c2)on1	5.2
COc1ccc(C(c2sc3ncnn3c2O)N2CC(C)OC(C)C2)cc1OC (stereo unspecified)	9.7
COC(=O)c1ccc(C)cc1	1.7
COc1ccc(NC(=O)c2cc3ccccn3n2)cc1	16.8
CSC[C@H](NC(=O)Cc1c(C)c2cc3c(C)c(C)oc3cc2oc1=O)C(=O)N[C@@H](Cc1ccccc1)C(=O)O	6.8
COCOc1ccc(/C=C/C(=O)c2c(OCOC)cc(OCOC)c(CC=C(C)C)c2O)cc1OCOC	6.9
CCOC(=O)N1CCC(N2Cc3cccc(C(=O)NCC4CCN(CC(C)C)C4)c3C2=O)CC1 (stereo unspecified)	9.2
CN1C(=O)C(C)(C)c2cc(S(=O)(=O)N(C)Cc3ccccc3)ccc21	7.0
O=C1C=C(Nc2ccccc2)C(=O)c2ccccc21	5.2
Clc1cccc(N2CCN(Cc3nnc(-c4ccccc4)o3)CC2)c1	3.5
CC1CCc2nn(CC(=O)NCc3ccc(F)cc3)cc2C1 (stereo unspecified)	16.7
O=C(Nc1ccccc1Cl)c1ccc2c(c1)N(Cc1ccc(F)cc1)C(=O)CS2=O (stereo unspecified)	15.0
COc1ccc(OC)c(CCNC(=O)Cc2ccc(NC3=NC4CS(=O)(=O)CC4S3)cc2)c1 (stereo unspecified)	6.7
CC(Oc1ccc2c(-c3ccccc3)cc(=O)oc2c1)C(=O)NCc1ccccn1 (stereo unspecified)	6.9
O=C(CCC(=O)N1CCSc2ccccc21)Nc1cccc(F)c1	3.5
COc1ccc(C)cc1NC(=O)CSc1nc2ccccc2nc1N1CCCC1	1.8
Cc1cc(=O)n2nc(N3CCCC3C(=O)Nc3cccc(Cl)c3C)sc2n1 (stereo unspecified)	1.8
CCOc1ccc(C2CC(c3ccc(CC)cc3)Nc3nc(N)nn32)cc1 (stereo unspecified)	14.9
COc1ccc(C2c3[nH]c4ccccc4c3C[C@H]3C(=O)N(c4ccccc4C(=O)N4CCC[C@H]4C(=O)O)C(=O)N23)cc1 (stereo partly specified)	12.3
O=S(=O)(NCCc1cn2ccccc2n1)c1ccc(F)c(C(F)(F)F)c1	4.4
CCCCNC(=O)Cc1cc(=O)[nH]c(=O)[nH]1	4.6
O=C(Nc1nnc(S(=O)(=O)N2CCCCC2)s1)c1ccc(Cl)cc1	6.8
